# Assay outcomes (PubChem BioAssay)
# RE007 growth inh = less growth of the S. pombe RE007 Vpr strain | S. pombe RE007 Vpr strain, BacTiter-Glo ATP luminescence, 24 h; control for the full effect not named in the record | Potency, µM (series often up to 92.2 µM), without a hit: top-dose activity change, negative = less growth | 0.21% of 360,000 active | AID 651644; active = well fitted falling curve with a large enough effect; inconclusive = small, poorly fitted or top-dose-only effect; inactive = no such curve, though single readings can be large or run the other way;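 note: % is set by controls: 0 for no effect and ±100 for the full control effect; nearly all actives have a fitted effect of over 50% in size; the assay follows cell death caused by Vpr and the record does not say whether a fall means rescue or toxicity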
#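 Fission yeast RE007 carrying one integrated HIV-1 vpr copy, seeded at OD 0.01 in PMG+AL medium with 23 nL pinned compound. Grown 24 h at 30 degrees; viability read by BacTiter-Glo luminescence after 5 min.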
# 2A StopGo = FMDV 2A StopGo reporter, luciferase signal | human cells with a luciferase reporter of 2A StopGo recoding; control for the full effect not named in the record | AID 1159524 | 1.2% of 410,000 active | Potency, µM (titrated, usually from 57.9 µM), for the others: at the highest dose signal change, negative = less light; active = well fitted falling curve with a large enough effect; inconclusive = small, poorly fitted or top-dose-only effect; inactive = no such curve, though single readings can be large or run the other way; tested in HEK293T cells; note: % is set by controls: 0 for no effect and ±100 for the full control effect; nearly all actives have a fitted effect of over 45% in size; luciferase light after 4 h
# Lassa entry inh = Lassa virus entry inhibition; 1.2% of 300,000 active; Lassa virus pseudotype entry inhibition, cell reporter; control for the full effect not named in the record; Potency, µM (doses to about 37.9 µM), inactives show at the top dose activity change, negative = inhibition, most hits filed as inhibitors; AID 540256; active means well fitted inhibition curve with a large enough effect; inconclusive means small, poorly fitted or top-dose-only effect, or effect the other way; inactive means flat fitted curve, though single readings scatter; tested in HEK293 cells; note: % is set by controls: 0 for no effect and ±100 for the full control effect; nearly all actives have a fitted effect of over 50% in size; luciferase read-out
# Cruzain Triton = blocks cruzain activity in presence of Triton detergent; P25779; purified cruzain, Z-FR-AMC fluorescence, 0.01% Triton; Potency, µM, without a hit: max response, negative = inhibition, actives largely listed as inhibitors; 0.43% of 200,000 active; AID 1478;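 note: plate controls were neutral wells for no effect and buffer without enzyme for full effect; nearly all actives have a fitted effect of over 40% in size; top concentration of the series not given in the record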
# Target sequence (P25779 123-467 limits assumed): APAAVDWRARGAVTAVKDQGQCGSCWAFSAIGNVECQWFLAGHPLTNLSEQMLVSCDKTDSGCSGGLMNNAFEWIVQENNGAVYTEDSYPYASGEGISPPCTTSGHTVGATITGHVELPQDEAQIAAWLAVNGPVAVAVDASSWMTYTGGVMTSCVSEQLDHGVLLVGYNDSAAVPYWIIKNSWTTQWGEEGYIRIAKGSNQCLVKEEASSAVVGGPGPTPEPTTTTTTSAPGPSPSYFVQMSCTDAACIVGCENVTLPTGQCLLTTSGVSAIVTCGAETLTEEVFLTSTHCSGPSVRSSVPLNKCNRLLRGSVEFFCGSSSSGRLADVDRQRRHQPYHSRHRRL
#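 Compounds were screened in titration against cruzain (1.5 nM) with 0.01% Triton X-100 to counter colloidal aggregation. Activity was the AMC fluorescence increase over 60 s after adding 2 uM Z-FR-AMC at pH 5.5.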
# SARS PLP yeast = SARS-CoV PLP inhibition in yeast; S. cerevisiae expressing SARS-CoV PLpro, growth rescue; control for the full effect not named in the record; Potency, µM (titrated, usually from 32.9 µM), for the others: at the highest dose activity, positive = growth rescue; 0.19% of 330,000 active; active means well fitted rising curve with a large enough effect; inconclusive means small, poorly fitted or top-dose-only effect; inactive means no such curve, though single readings can be large or run the other way; note: 0% is about no effect; nearly all actives have a fitted effect of over 55% in size; growth read by luminescence after 48 h
# NS1 function inh = influenza NS1 inhibition. Potency, µM (top dose mostly 46.1 µM), for the others: at the top dose activity, positive = more growth. S. cerevisiae slowed by influenza A NS1, growth recovery by OD600. 0.4% of 270,000 active; active means well fitted rising curve with a large enough effect; inconclusive means small, poorly fitted or top-dose-only effect; inactive means no such curve, though single readings can be large or run the other way; note: nearly all actives have a fitted effect of over 50% in size
#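 OD600 was taken as the measure of yeast growth restored by compound in an NS1-expressing S. cerevisiae strain. Cells had been washed out of glucose medium and diluted 1:100 into galactose -URA medium, pH 6.0.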
# Cruzain inh noDet = cruzain (T. cruzi) inhibition without detergent. P25779. purified cruzain, Z-FR-AMC fluorescence, no detergent. 2.3% of 200,000 active. Potency, µM, for the others: max response, negative = inhibition, actives largely listed as inhibitors. AID 1476;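 note: plate controls were enzyme without inhibitor for no effect and buffer without enzyme for full effect; nearly all actives have a fitted effect of over 40% in size; top concentration of the series not given in the record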
#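 Detergent-free condition (0.00005% Triton X-100) in acetate buffer pH 5.5 with DTT. 1.5 nM enzyme and compound were pre-mixed 15 min, then 2 uM Z-FR-AMC substrate added; reaction progress from fluorescence change between first and third reads (60 s).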
# MARV entry inh = inhibitors of Marburg virus binding or cell entry. Marburg virus pseudotyped entry inhibition, cell reporter; control for the full effect not named in the record; about a third of the inactives were read at about 46 µM. Potency, µM (titrated, usually from 37.8 µM), without a hit: top-dose activity change, negative = inhibition, hits mostly inhibitors. 1.8% of 300,000 active; active = well fitted inhibition curve with a large enough effect; inconclusive = small, poorly fitted or top-dose-only effect, or effect the other way; inactive = flat fitted curve, though single readings scatter; tested in HEK293 cells; about a fifth of its hits are not listed in these tables; note: % is set by controls: 0 for no effect and ±100 for the full control effect; luciferase read-out
# Active calls of the source: *; ? = inconclusive; nt = no result given; & = joins results of further samples; [ ] = remark or other dose. Unless noted, calls come from the whole dose curve; as a rule, active = well fitted curve in the direction sought with a large enough effect; inconclusive = small, poorly fitted or top-dose-only effect, or another doubt; inactive = no such curve, though single readings can be large; an effect the other way counts as inactive or inconclusive. Potency is the fitted concentration of half-maximal effect. Hits appear at their usual frequency. Share with any hit: about 4.7%.
SMILES,RE007 growth inh,2A StopGo,Lassa entry inh,Cruzain Triton,SARS PLP yeast,NS1 function inh,Cruzain inh noDet,MARV entry inh
COc1ccc(C(=O)Nc2ccccc2C(=O)OCc2cc(=O)n3nc(C4CC4)sc3n2)cc1,nt,14.1%,21.5%[46.1 µM],1.5%,nt,nt,1.2%,nt
CCOc1cc2c(cc1OCC)C(c1ccc(OC)c(OC)c1)N(c1ccc(C(=O)O)cc1)C(=O)C2 (stereo not given),-7.8%,-5.3%,?,nt,-0.1%,nt,nt,?
CC(C)(C)c1ccc(S(=O)(=O)N2CCN(C(=O)C3CCC3)CC2)cc1,8.0%,?,?,nt,-1.3%,1.0%,nt,4.47µM*
O=[N+]([O-])c1ncccc1OCc1ccc(-c2ccccc2)cc1,-9.5%,-9.1%,nt,nt,0.7%,-3.3%,nt,18.2%[46.1 µM]
CCCCNC(=O)C(CC)Sc1nnc(-c2ccc(F)cc2)c(-c2ccc(F)cc2)n1 (stereo not given),nt,-15.0%,?,0.6%,nt,nt,-20.9%,nt
CCn1c(SCC(=O)NCc2ccccc2)nnc1-c1cccnc1,12.3%,4.9%,-7.3%[46.1 µM],nt,-1.3%,0.4%,nt,7.5%[46.1 µM]
Cc1ccn2cc(-c3cccc([N+](=O)[O-])c3)nc2c1,-1.9%,-10.4%,4.47µM*,nt,0.5%,-3.3%,nt,?
CCOc1ccccc1CNC(=O)CCCn1ccc2cc(S(=O)(=O)N3CCCC3)ccc21,-17.0%,?,-7.6%[46.1 µM],-4.7%,-0.2%,4.6%,13.2%,nt
C/C(=C\C=C\c1ccccc1)C(=O)c1c(C)cc(C)[nH]c1=O,5.8%,-5.2%,-22.5%,nt,-1.5%,nt,nt,-11.0%
O=c1c2c3c(sc2nc(NCCOCCO)n1Cc1ccco1)CCCCC3,13.8%,0.5%,nt,nt,0.3%,10.2%,nt,nt
C=CCN(c1ccc(Cl)cc1)S(=O)(=O)c1cccc(C(=O)OCC(=O)N(C)C)c1,-13.5%,-5.6%,nt,nt,0.8%,-6.3%,nt,nt
CCN1C(=O)c2ccccc2S(=O)c2ccc(C(=O)N3CCN(c4cccc(C)c4)C(C)C3)cc21 (stereo not given),nt,?,?,2.1%,nt,nt,?,-4.7%[46.1 µM]
CCCNC(=O)NC(=O)CSc1nnc(-c2c[nH]c3ccccc23)o1,-7.8%,2.3%,-7.0%,nt,3.5%,-1.7%,nt,8.3%[46.1 µM]
Cc1c(C(=O)O)cc(C(C)(C)C)n1CCSCCO,-7.5%,10.0%,?,nt,1.1%,3.0%,nt,-1.2%[46.1 µM]
Cc1cc(C)nc(NS(=O)(=O)c2ccc(NC(=O)Cc3ccccc3)cc2)n1,2.5%,75.4%[activator],-10.4%,nt,-3.0%,nt,nt,11.8%[46.1 µM]
Cc1ccc(F)cc1NC(=O)C1CC(=O)N(CCc2ccccc2)C1 (stereo not given),-6.4%,-17.3%,nt,nt,2.5%,5.3%,nt,nt
COc1ccc(CNC(=O)C(=O)NCC(c2cccs2)S(=O)(=O)c2cccs2)cc1 (stereo not given),nt,?,-18.1%[46.1 µM],-1.7%,nt,nt,-2.4%,nt
Cc1cc(Cl)ccc1C(=O)C1CCCN(C(=O)CN2CCOC2=O)C1 (stereo not given),23.5%,-2.2%,-15.5%,nt,-5.7%,-0.1%,nt,-4.5%
Cc1ccc(NC(=S)NNC(=O)c2nn(C)cc2Cl)cc1,0.8%,14.5%,0.0%,4.4%,-2.1%,-2.5%,-1.4%,21.0%[46.1 µM]
COc1cc(/C=C/C(=O)OCC(=O)c2ccc(S(=O)(=O)N3CCCCC3)cc2)cc(OC)c1OC,-15.9%,-20.2%,10.5%,nt,-1.9%,nt,nt,22.7%
COc1cc(C(=O)NCC(C)C)cc(OC)c1OC,-3.7%,24.4%,-3.1%,-0.5%,-2.7%,3.4%,1.8%,9.9%
CCOCCn1c(CN2CCN(C(=O)c3ccco3)CC2)nc2c1c(=O)n(C)c(=O)n2C,0.0%,-6.5%,nt,nt,-3.2%,8.5%,nt,nt
Cc1nn(Cc2ccccc2)c(Cl)c1C(=O)NCCc1ccc(Cl)cc1,2.0%,-11.9%,?,-1.0%,-6.7%,-14.8%,8.8%,-7.5%
Cc1nccn1CC(=O)N/N=C/c1c[nH]c2ccccc12,-4.4%,-19.1%,?,nt,0.0%,4.0%,nt,?
Cc1c(C(=O)NCc2cccc(Cl)c2)sc2nc3n(c(=O)c12)CCC3,nt,3.4%,17.5%[46.1 µM],-1.4%,nt,nt,4.8%,nt
O=C(CO/N=C/c1ccccc1OC(F)F)N1CCc2ccccc21,5.8%,2.8%,7.3%,-2.0%,-10.1%,24.5%,-6.6%,3.4%
Cc1ccccc1CN1CCCC(C(=O)N2CCCCC2)C1 (stereo not given),7.8%,-8.4%,nt,nt,3.3%,-2.5%,nt,nt
O=C1CSC(c2ccccc2F)N1c1ccccc1F (stereo not given),23.1%,-17.5%,nt,nt,0.4%,2.1%,nt,nt
CCCCC(CC)CNC(=O)CN(C)S(=O)(=O)c1cccc2nsnc12 (stereo not given),-1.0%,?,4.1%,-0.4%,2.9%,-36.9%,16.6%,7.6%
CCOC(=O)C(NCCc1ccccc1F)(NC(C)=O)C(F)(F)F (stereo not given),-13.3%,-14.8%,-6.0%,-0.9%,25.3%,14.2%,-4.6%,-5.0%
CCn1c(SCC(=O)NC(C)(C)C)nc(O)cc1=O,3.1%,-4.7%,-22.0%,6.7%,?,?,1.8%,11.0%[46.1 µM]
O=C(CN1C(=O)c2ccccc2S1(=O)=O)N1CCN(Cc2ccc3c(c2)OCO3)CC1,1.5%,-7.3%,26.3%,-4.8%,4.7%,2.1%,-6.5%,1.4%&-16.7%
COCCCN1C(=O)C(=O)/C(=C(/O)c2ccc(S(=O)(=O)N3CCCCC3)cc2)C1c1ccc(OC)cc1 (stereo not given),-1.1%,-12.7%,nt,nt,1.9%,6.7%,nt,nt
COc1cccc(Nc2n[nH]c(=S)s2)c1,-13.5%,8.0%,7.1%,-4.9%,13.4%,11.0%,14.2%,?
COc1ccc(N2CCN(C(CNC(=O)c3cccc(Cl)c3)c3cccnc3)CC2)cc1 (stereo not given),20.0%,?,-24.7%,-4.3%,0.6%,-16.8%,6.9%,-19.8%&-19.8%
Cc1cc2occ(CC(=O)NC3(C)CCS(=O)(=O)C3)c2cc1C (stereo not given),-2.5%,-4.3%,nt,nt,-1.5%,1.1%,nt,nt
CCOc1ccc(C2NC(=O)C(C#N)=C(S)N2c2cccc(C)c2)cc1OC (stereo not given),17.2%,5.1%,nt,nt,-2.0%,2.4%,nt,nt
C=CCOc1ccc(C2OC34CCCCC3C(C#N)(C#N)C2(C#N)C(=N)O4)cc1 (stereo not given),-5.7%,?,8.3%,-5.2%,1.0%,7.8%,7.6%,0.5%
CN(CC(=O)Nc1ccc(Cl)c(C(F)(F)F)c1)Cc1cc(=O)n2ccsc2n1,3.7%,-23.3%,6.7%,nt,-4.0%,nt,nt,-4.4%[46.1 µM]
COc1ccc(Nc2nc(S(=O)(=O)c3ccc(C)cc3)c(Cl)s2)cc1,23.1%,?,-0.4%[46.1 µM],-5.5%,-61.4%,-5.8%,-6.2%,?
COc1ccc(C)cc1NC(=O)c1cc2c(=O)n3cccc(C)c3nc2s1,nt,4.4%,1.1%[46.1 µM],-2.2%,nt,nt,-11.1%,?
NC(=NC1CCCCC1)NS(=O)(=O)c1ccccc1,2.2%,82.8%[activator],?,nt,0.8%,8.1%,nt,-3.0%
CSCCC(NC(=O)c1ccc([N+](=O)[O-])cc1Cl)C(=O)OCC(=O)NCCCc1ccccc1 (stereo not given),2.0%,-4.2%,-1.5%,?,-21.0%,-23.6%,?,12.9%
CC(NCC1COc2ccccc2O1)C1COc2ccccc2O1 (stereo not given),5.6%,-18.0%,?,nt,0.2%,-0.2%,nt,5.1%[46.1 µM]
CCCCNC(=O)c1ccc(-n2c(=S)[nH]c3ccccc3c2=O)cc1,11.8%,0.7%,-24.4%,nt,-1.3%,nt,nt,-24.6%
CSCCC(NC(=O)c1ccc([N+](=O)[O-])cc1Cl)C(=O)OCC(=O)NCC(F)(F)F (stereo not given),35.6%,-0.8%,?,?,16.0%,1.8%,?,-20.4%
c1ccc2c(c1)CCCN2Cc1nnnn1C1CCCC1,1.3%,25.7%,0.5%,2.5%,4.4%,-8.0%,-4.5%,-29.3%
Clc1ccc(-c2noc3ncnc(NC4CCCCC4)c23)cc1,nt,-26.9%,-8.6%[46.1 µM],-3.6%,nt,nt,7.6%,?
N#CC(C#N)C(c1ccsc1)c1c(-c2ccccc2)[nH][nH]c1=O (stereo not given),3.8%,-15.6%,23.6%,-6.3%,-3.0%,15.3%,-12.0%,2.1%&2.1%
CN(C)c1ccc(CNC(=O)c2ccc3nc(CCc4ccccc4)oc3c2)cc1,nt,7.7%,-27.6%[46.1 µM],0.5%,nt,nt,-2.6%,nt
COc1ccc(OC)c(NC(=O)[C@H]2CC=CC[C@H]2C(=O)O)c1,7.1%,5.9%,7.2%,5.6%,-0.9%,1.9%,-4.3%,21.9%
CC(C)(C)c1ccc(OCCSc2nc(-c3cccs3)nc3cc(=O)[nH]n23)cc1,nt,-29.0%,1.6%[46.1 µM],1.1%,nt,nt,5.6%,nt
COc1ccc(Cl)cc1NC(=S)NC1CCCC1,-12.9%,19.5%,nt,nt,9.1%,20.2%,nt,nt
COc1cccc(C(=O)Nc2cc(C(=O)NCc3ccc(C)cc3)ccc2N2CCC3(CC2)CC(c2ccccc2)=NO3)c1,-5.3%,1.0%,nt,nt,-3.7%,24.8%,nt,nt
CN1C(=O)[C@H]2[C@@H](/C=C/c3ccccc3)N3C(=O)CN(Cc4ccccn4)C(=O)[C@@]3(C)[C@H]2C1=O,8.8%,-3.1%,nt,nt,-10.2%,1.5%,nt,nt
COc1cccc(OC)c1C(=O)Nc1cc(Cl)ccc1N1CCOCC1,-8.4%,6.6%,5.7%,-4.9%,-1.0%,-16.3%,8.6%,-6.4%
Cc1nc(N)c(C#N)c(-c2ccc3c(c2)OCO3)c1C,25.4%,-1.8%,nt,nt,-0.9%,-13.9%,nt,nt
Cc1ccc(C)c(Cn2c(C(=O)OC(C)C)cc3c2ccn3C)c1,-8.1%,?,0.2%,-11.8%,-24.8%,9.1%,-9.9%,-10.7%
